RN4220 kill: growth inhibition of S. aureus RN4220, primary screen, OD600; 16 h; inhibition, % (test concentration not listed); 0.33% of 330,000 active;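 active = z-score of -3 or lower and OD600 up to 0.18 on both plates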;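 note: plate controls were untreated cells for no effect and reference antibiotic for full effect; stock transfer was 100 nL into about 80 µL; one replicate is shown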
ugtP null kill: growth inhibition of ugtP-null S. aureus, primary screen, RN4220 ugtP deletion, OD600; 0.54% of 330,000 active; growth inhibition, % (test concentration not listed); 16 h; some inactives read as strong as hits; AID 1259309, 2017;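 active = z-score under -3 and OD600 up to 0.15 on both plates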;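 note: plate controls were untreated wells for no effect and antibiotic for full effect; wells of about 80 µL received 100 nL stock; the first replicate is given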
BJeLR viability: MLPCN primary cell-based screen for lethality selective to Ras in HRASV12 cells; 0.17% of 300,000 active; inhibition, % (concentration not given with the values); BJeLR (HRASV12) viability, CellTiter-Glo ATP luminescence, 48 h; reference of the scale not given here;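 active = replicate mean above 50%; inconclusive = above 50% but judged a plate artefact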;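 note: 50 nL library stock added to about 25 µL; numbers are from one replicate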
Bead autofluor: flagged as autofluorescent in microsphere protease counterscreen; fluorescence intensity (test concentration not listed); compound autofluorescence counterscreen, microsphere flow cytometry; stronger effect = higher value; AID 624483; 3.1% of 360,000 active;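 active = at least 3 SD above the mean of all compounds, about 16000 in these data; inconclusive = too few beads counted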;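 note: 100 nL of 1 mM stock went into each well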
Mtb hypoxia inh: PubChem AID 1159583 | M. tuberculosis hypoxia-regulated fluorescent reporter, fluorescence | fluorescence inhibition, % (concentration not given with the values) | 0.1% of 300,000 active;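 active = 35 to 45% if threefold the growth effect, above 45% if 1.5-fold the growth effect; inactive = the rest, general growth blockers included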;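 note: wells of about 50 µL received 100 nL stock; 0% = vehicle wells and 100% = reference inhibitor wells; whole bacteria with a GFP reporter of the hypoxia response; strong numbers were not always called active; many hits fall short of the cut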
PrP 5UTR inh: inhibition of PrP 5' UTR reporter expression | cell-based PrP 5' UTR mRNA reporter, plate reader | inhibition, % (concentration not given with the values) | 0.35% of 340,000 active | AID 488862, 2010;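 active = every replicate at 50% or more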;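 note: 0 = median of the neutral control wells; tested in H4 reporter cells; numbers are from one replicate; inactives centre near -14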
Mtb hypoxia inh growth: further read-out of Mtb hypoxia inh, marked with its call; growth inhibition, %; measured here: M. tuberculosis growth (absorbance);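 0% = vehicle and 100% = reference antibiotic; read after six days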
Active calls of the source: *; ? = inconclusive; . = not tested or not shown.

SMILES	RN4220 kill	ugtP null kill	BJeLR viability	Bead autofluor	Mtb hypoxia inh	Mtb hypoxia inh growth	PrP 5UTR inh
Cc1ccc(-c2nc3cc(NS(=O)(=O)c4ccc(C)cc4)ccc3o2)cc1	-8.5	78.8	-1.3	20631*	0.4	3.7	-17.9
CC(=O)Nc1ccc(NS(=O)(=O)c2ccccc2)cc1	2.7	2.9	7.0	4552	4.6	7.2	-44.7
CCOC(=O)Nc1ccc2c(CN3CCC(C(=O)OC)CC3)cc(=O)oc2c1	0.9	-0.2	-5.0	4046	-5.8	9.9	.
CCOC(=O)NC(=O)CSc1nnc(C)s1	-0.2	3.9	-1.2	11398	1.2	0.0	-19.9
COCC(=O)NC1CCN(S(=O)(=O)c2cccc(C(C)=O)c2)CC1	3.6	7.8	-6.6	4857	11.2	-3.0	6.1
CC(O)C1CCC2C3CCC4CC(O)CC[C@]4(C)C3C(=NO)C[C@]12C (stereo partly drawn)	4.0	1.7	.	.	19.6	9.6	.
Nc1c(-c2ccc(Cl)cc2)cnn1C1CCS(=O)(=O)C1 (stereo not drawn)	20.0	5.3	13.9	3247	-7.0	5.2	-16.6
Cc1cccc(NC(=O)c2ccc(N3C(=O)C4CCCCC4C3=O)cc2)c1C (stereo not drawn)	0.6	2.1	0.4	5790	-0.7	-0.6	-10.6
CC(C)(CC(=O)O)CC(=O)N1CCCN(c2nccc(C(F)(F)F)n2)CC1	3.2	0.1	1.3	3648	-3.8	2.3	-16.0
Cc1ccc(OCC(=O)N/N=C/C=C/c2ccco2)cc1	.	.	-8.3	2280	.	.	-12.1
COc1ccc(S(=O)(=O)NCC(=O)Nc2cccc(C)c2C)cc1OC	1.7	7.6	1.6	4557	8.1	14.2	-4.0
O=C(Cn1nc(C(=O)O)c2ccccc2c1=O)Nc1cc(S(=O)(=O)N2CCCCC2)ccc1Cl	3.4	11.1	.	2967	6.0	-0.8	-12.5
NC(=O)C1Cc2ccccc2CN1S(=O)(=O)c1cccs1 (stereo not drawn)	6.7	6.6	.	4178	0.1	-4.4	25.0
N#Cc1c(N)oc(-c2ccccc2)c1-c1ccccc1	-1.0	7.2	-11.6	4972	.	.	-17.8
Nc1nnc(CCS(=O)(=O)c2ccc(Br)cc2)s1	3.7	10.9	-1.7	4338	-3.9	3.3	-3.3
Cc1c(NC(=O)c2c(O)c3ccccc3n(C)c2=O)c(=O)n(-c2ccccc2)n1C	4.2	2.7	-6.4	3678	7.8	0.6	-9.4
Cc1oc(-c2ccccc2)cc1C(=O)Nc1ccc2ccccc2c1	2.3	-7.6	-4.6	3277	8.6	12.2	-24.9
CCOc1ccc(NC(=O)NNC(=O)c2cc3ccccc3cc2O)cc1	-0.7	11.0	-14.4	?	13.0	3.4	-10.3
O=C(Nc1ccnn1C1CCN(C(=O)c2cccc(Cl)c2)CC1)C1CC1	2.2	1.5	-4.7	5688	2.0	7.1	7.9
O=C1CCCN1c1ccc(S(=O)(=O)NCCOc2ccccc2)cc1	0.5	17.5	5.7	3280	7.2	3.4	-1.9
Cc1cc(OCC(=O)NNC(=O)c2cccc(F)c2)ccc1Cl	7.4	3.8	.	3942	6.8	3.9	-15.8
Cc1cc(C)c(-c2c(O)c3cnn(-c4ccccc4)c3[nH]c2=O)c(C)c1	-0.5	2.0	9.0	2626	-0.2	3.8	-20.0
COc1cc(NC(=O)CNc2ccc(Cl)c(S(=O)(=O)N3CCOCC3)c2)cc(OC)c1	-6.5	-4.7	.	4897	1.3	3.0	-11.6
COC(=O)C1=C(C(=O)OC)SC2(S1)C(C(=O)OC)=C(C(=O)OC)SC1=C2c2cc(C)cc(C)c2NC1(C)C	-9.3	1.6	8.9	4034	.	.	-13.8
COCCCn1c(=O)/c(=C\c2ccccc2OC(C)C)s/c1=C(/C#N)C(=O)Nc1ccc(C(=O)O)cc1	.	.	-2.9	4685	.	.	1.4

Entries shown so far that contain fluorine:
SMILES	RN4220 kill	ugtP null kill	BJeLR viability	Bead autofluor	Mtb hypoxia inh	Mtb hypoxia inh growth	PrP 5UTR inh
CC(C)(CC(=O)O)CC(=O)N1CCCN(c2nccc(C(F)(F)F)n2)CC1	3.2	0.1	1.3	3648	-3.8	2.3	-16.0
Cc1cc(OCC(=O)NNC(=O)c2cccc(F)c2)ccc1Cl	7.4	3.8	.	3942	6.8	3.9	-15.8

The main list resumes; the 2 compounds before the break are reprinted first.
SMILES	RN4220 kill	ugtP null kill	BJeLR viability	Bead autofluor	Mtb hypoxia inh	Mtb hypoxia inh growth	PrP 5UTR inh
COC(=O)C1=C(C(=O)OC)SC2(S1)C(C(=O)OC)=C(C(=O)OC)SC1=C2c2cc(C)cc(C)c2NC1(C)C	-9.3	1.6	8.9	4034	.	.	-13.8
COCCCn1c(=O)/c(=C\c2ccccc2OC(C)C)s/c1=C(/C#N)C(=O)Nc1ccc(C(=O)O)cc1	.	.	-2.9	4685	.	.	1.4
COc1ccc(CC(NC(C)=O)C(=O)NC2CCN(C(=O)c3ccc([N+](=O)[O-])cc3)CC2)cc1OC (stereo not drawn)	2.3	-1.6	-3.2	4035	9.9	-2.2	-16.9
Cn1nnnc1SCCNS(=O)(=O)c1ccccc1	4.1	-7.5	-4.2	4567	.	.	-27.9
CCn1cc(C(=O)NP(=O)(Nc2ccc(C)cc2)Nc2ccc(C)cc2)c2ccccc21	6.7	3.9	11.4	4538	-4.0	-4.0	-31.9
CCOC(=O)COc1c(-c2ccc(OC)cc2)oc2ccccc2c1=O	3.2	-3.7	1.5	4265	.	.	-11.0
CC(C)NCCCCOc1ccccc1-c1ccccc1	3.3	-0.6	13.5	.	9.9	6.5	.
COC(=O)C1=C(CSc2nnnn2C)NC(=O)NC1c1cc(C)ccc1C (stereo not drawn)	-1.9	-3.1	8.3	5488	.	.	-14.5
O=C(O)COc1ccc(Nc2ccccc2)cc1	-0.1	10.1	2.9	5050	2.4	3.9	-25.6
COc1ccc(OC)c(/C=N/NC(=O)CCc2c(C)n[nH]c2C)c1	.	.	2.9	3807	.	.	-21.1
Cc1ccc(C)c(S(=O)(=O)N/N=C/c2ccc(C(=O)O)cc2)c1	.	.	5.3	9159	.	.	-41.7
CCN(CC)CCNc1ccc(Cl)cc1[N+](=O)[O-]	-9.3	-2.4	10.9	3957	-4.5	-2.9	-17.8
CN(CC(=O)Nc1cccc(F)c1)C(=O)c1ccc2c(c1)NC(=O)CS2	2.8	4.6	.	5889	5.4	7.6	-7.8
CCOc1ccc(NC(=O)C(=O)N/N=C/c2ccccc2F)cc1	.	.	-2.4	4535	.	.	-19.7
S=c1[nH]nc(Cn2nnc3ccccc32)n1-c1ccc(Cl)cc1	7.9	-3.5	-6.1	3302	2.2	11.6	-23.6
O=C(COc1ccccc1)Nc1sc2c(c1C(=O)NCc1cccnc1)CCCC2	1.4	-13.4	-8.9	8123	7.2	14.7	-27.6
Cc1ccc(C)c(S(=O)(=O)N2CCN(C(=O)[C@H](Cc3ccccc3)NC(=O)c3ccco3)CC2)c1	9.8	0.2	.	4514	15.4	0.6	-6.8
COc1cccc2c(=O)n(CC(=O)Nc3ccc(F)cc3F)ccc12	6.1	6.9	0.0	4524	8.1	7.5	-4.9
N#CCO/N=C/C(=O)Nc1ccc(F)cc1F	.	.	-17.1	2561	.	.	-21.1
O=C(Nc1ccc(-c2nc3cccnc3s2)cc1)c1cccnc1Cl	4.5	4.0	-2.4	5962	11.6	8.5	-93.8
CC(=O)OC1(Cc2ccccc2)CN2CCC1c1ccccc12 (stereo not drawn)	-0.4	-0.5	-0.1	3232	10.0	9.9	-14.3
Cc1cc(C)cc(NC(=S)NC2CC3CCCC(C2)N3CC(C)C)c1 (stereo not drawn)	-0.9	5.7	-2.2	4129	-3.7	2.0	-29.6
c1ccc2c(c1)CCC2=NNc1nc2ccccc2[nH]1	-8.9	-4.3	.	.	-14.4	-5.5	.
COCCCN1CN(Cc2ccco2)CNC1=S	3.9	1.2	2.2	6140	4.4	5.4	.
COc1cc(OC)c(OC)cc1/C=N/NC(=O)c1cc(-c2cccn2C)n[nH]1	.	.	10.1	8841	.	.	-19.6
CC1(NC(=O)CC(c2ccccc2)(c2ccccc2)c2ccccc2)CCN(CCCc2ccccc2)C1=O (stereo not drawn)	-7.3	-7.3	.	3762	2.0	4.0	-26.7
Cc1ccc(C)c(SCC(=O)OCC(=O)Nc2ccc(S(=O)(=O)N3CCOCC3)cc2)c1	2.7	4.4	-11.8	4221	9.4	6.0	-21.3

Brought forward from above: two entries, then new ones.
SMILES	RN4220 kill	ugtP null kill	BJeLR viability	Bead autofluor	Mtb hypoxia inh	Mtb hypoxia inh growth	PrP 5UTR inh
CC1(NC(=O)CC(c2ccccc2)(c2ccccc2)c2ccccc2)CCN(CCCc2ccccc2)C1=O (stereo not drawn)	-7.3	-7.3	.	3762	2.0	4.0	-26.7
Cc1ccc(C)c(SCC(=O)OCC(=O)Nc2ccc(S(=O)(=O)N3CCOCC3)cc2)c1	2.7	4.4	-11.8	4221	9.4	6.0	-21.3
CCOC(=O)c1c(C)[nH]c(C(=O)COC(=O)c2ccco2)c1C	4.0	-3.1	.	4143	-14.5	6.1	-48.4
CCC(C)(C)NC(=O)C(c1ccccc1F)N(Cc1ccco1)C(=O)c1csnn1 (stereo not drawn)	-0.4	-2.5	11.7	4365	1.2	-0.8	10.0
CN(CC(=O)Nc1ccccc1Br)C(=O)CN(C)C1CCCCC1	0.3	0.8	.	3816	5.4	7.9	-22.4
COc1ccc(C(=O)O/N=C(\N)c2ccccn2)c(OC)c1	0.7	4.7	0.3	6062	-6.7	-7.4	-26.5
c1ccc(CNc2nc(-c3cccs3)nc3ccccc23)cc1	-8.4	-24.8	-12.4	4197	-7.4	4.3	-31.5
COc1ccc(C(C)=NNC(=S)Nc2cc(C)ccc2C)cc1	2.9	7.0	.	.	18.3	16.8	.
CCCN(CCC)CCNC(=O)c1cc2c(=O)n(C)c3ccccc3c2n1C	3.8	6.5	-2.0	4204	.	.	-9.7
O=C1CC(C(=O)N2CCc3ccccc32)CN1c1cccc(C(F)(F)F)c1 (stereo not drawn)	4.2	5.8	.	3732	2.0	4.4	-21.3
COc1ccc(-c2cc(C(F)(F)F)nc(SCC(=O)N(C)Cc3cn(C)nc3C)n2)cc1OC	.	.	1.0	2200	.	.	0.6
COc1ccccc1N1CCN(C(=O)c2sc3ncnc(N4CCN(c5ccccn5)CC4)c3c2C)CC1	0.5	4.7	0.3	5240	-1.7	15.1	-19.2
COc1ccc(CSc2nnnn2-c2ccc(O)cc2)cc1F	3.7	3.6	3.8	4978	0.2	2.1	-10.0
CC(=O)c1c(C)[nH]c(C(=O)OCC(=O)N2CCN(S(=O)(=O)c3ccc(C)cc3C)CC2)c1C	-2.4	-2.6	4.4	2714	.	.	-20.1
CC(=O)OC(C(=O)NCc1ccc2c(c1)OCO2)c1ccccc1Cl (stereo not drawn)	-0.7	4.1	-5.6	5315	.	.	-13.5
CSc1nsc(SCC(=O)Nc2nncs2)n1	5.0	19.6	8.7	3165	7.0	-1.5	-16.7
Cc1ccc(S(=O)(=O)Nc2ccccc2C(=O)N2CCOCC2)cc1	-0.4	-2.2	-6.0	5659	-6.9	5.9	-1.6
CCOC(=O)c1c(N)sc(=S)c2c1CCC2	0.7	0.1	-5.4	2905	.	.	-9.2
Cc1ccccc1N1C(=O)c2cccc3c(N(C)CCO)ccc(c23)C1=O	3.1	3.6	-5.3	10335	-5.6	1.3	-20.7
CCC(C(=O)NCCC1=CCCCC1)n1nc(C)c2c(C)n(-c3ccccc3)nc2c1=O (stereo not drawn)	2.3	-3.2	1.1	5864	-1.9	-2.7	-5.6

Assay outcomes (PubChem BioAssay)
